# GLA inh pH 4.5: blocks human alpha-galactosidase A at pH 4.5. P06280. purified enzyme, 4-MU-alpha-Gal fluorescence, pH 4.5. activity change, negative = inhibition, % at 105 µM. 230,000 tested, under 10 active; inconclusive = small, poorly fitted or top-dose-only inhibition, or a rising curve; inactive = flat fitted curve, though single readings scatter; no compound was filed as active;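 note: 0% = full activity with enzyme and -100% = basal without enzyme; dose as in the result columns while the protocol names 77 µM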
# Rango-impB inh: prevents formation of the Rango-importin beta complex; Rango CFP/YFP FRET sensor + importin beta, 45 min; Potency, µM (top dose mostly 92.2 µM), inactives show at the top dose inhibition of complex formation; 0.031% of 340,000 active; active = rising FRET ratio curve, often small or poorly fitted; inconclusive = mostly compound fluorescence or quenching in the first reads; inactive = flat curves in all reads;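 note: potency is the fitted concentration of half-maximal effect; 0% = DMSO wells and 100% = buffer wells lacking importin beta; nearly all actives have a fitted effect of over 15% in size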
# Target sequence (Q14974 whole entry, looked up): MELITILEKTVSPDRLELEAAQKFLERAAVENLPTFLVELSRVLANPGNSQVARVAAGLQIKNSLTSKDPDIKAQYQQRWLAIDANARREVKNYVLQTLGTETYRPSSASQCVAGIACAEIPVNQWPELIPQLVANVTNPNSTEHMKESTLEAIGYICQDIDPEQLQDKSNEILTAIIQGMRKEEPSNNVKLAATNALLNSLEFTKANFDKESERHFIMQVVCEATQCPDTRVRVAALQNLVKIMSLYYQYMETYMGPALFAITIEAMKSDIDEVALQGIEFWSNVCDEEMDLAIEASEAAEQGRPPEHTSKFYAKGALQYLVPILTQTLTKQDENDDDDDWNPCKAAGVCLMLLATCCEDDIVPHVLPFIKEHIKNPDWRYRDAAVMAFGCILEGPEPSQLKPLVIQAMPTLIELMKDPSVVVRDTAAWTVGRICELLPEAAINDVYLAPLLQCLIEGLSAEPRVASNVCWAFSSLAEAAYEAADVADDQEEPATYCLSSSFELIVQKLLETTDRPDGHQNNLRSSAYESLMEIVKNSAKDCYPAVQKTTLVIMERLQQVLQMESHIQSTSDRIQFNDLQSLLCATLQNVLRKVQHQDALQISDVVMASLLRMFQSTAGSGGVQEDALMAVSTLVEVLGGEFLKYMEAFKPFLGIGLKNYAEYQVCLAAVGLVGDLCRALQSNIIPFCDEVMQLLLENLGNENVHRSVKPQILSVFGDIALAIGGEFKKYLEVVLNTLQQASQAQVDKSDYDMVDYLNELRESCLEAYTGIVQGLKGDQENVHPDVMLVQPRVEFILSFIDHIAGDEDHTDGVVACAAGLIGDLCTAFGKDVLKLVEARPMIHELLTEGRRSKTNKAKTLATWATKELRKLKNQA
#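 FRET biosensor (snurportin 1 IBB flanked by EYFP and cerulean), 50 nM, with compound 5 min, then 0.125 microM importin beta in PBS, 1 mM DTT, 0.02% Tween-20, 0.1% BSA. CFP/YFP ratio read after 45 min at room temperature; pre-read flags interference.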
# miR-21 reporter: raises the signal of a miR-21 reporter | 340,000 tested, under 10 active | HeLa miR-21 FLuc reporter, luciferase, 48 h | AID 2288 | Potency, µM (highest dose often 38.3 µM), inactives show at the top dose reporter change, positive = more light; active = well fitted rising curve with a large enough effect; inconclusive = small, poorly fitted or top-dose-only effect; inactive = no such curve, though single readings can be large or run the other way;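 note: % of control where 0% means no effect; miR-21 action dims this reporter so a rising signal means less miR-21 action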
#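 HeLa cells endogenously expressing miR-21, stably carrying CMV-driven firefly luciferase with a downstream miR-21 binding site, 2000 cells/well. Titrations up to approximately 40 uM, 48 hours; luciferase luminescence read.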
# Rango release inh: inhibitors of RanGTP-induced Rango-importin beta complex dissociation; O95149+P62826; Biochemical FRET Rango-importin beta, RanGTP-induced dissociation; Potency, µM (highest dose often 46.1 µM), for inactives: top-dose activity change, negative = inhibition; 0.071% of 340,000 active; AID 540253; active means falling FRET ratio curve, often poorly fitted, with flat reads before Ran was added; inconclusive means other falling curves, or compound fluorescence or quenching; inactive means flat or rising ratio curve;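 note: potency is the fitted concentration of half-maximal effect; % of control where 0% means no effect; nearly all actives have a fitted effect of over 45% in size; -100% = wells without RanGTP and RCC1; the record marks most hits as doubtful in a second field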
#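 Compounds sat 5 min at room temperature with 0.1 uM Rango biosensor plus 0.25 uM importin beta, then FRET pre-read. RanGTP-RCC1 (0.6 uM Ran, 2mM GTP, 0.2 uM RCC1) added for 45 min, and the CFP/YFP post-read measured blocked complex dissociation.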
# Numbers without * were called inactive; ? = inconclusive; / = not tested or not shown; & = joins results of further samples. These rows are one share of the data; count on the stated rates, not on these rows.
# Sample of the layout (5 entries):
Molecule,GLA inh pH 4.5,Rango-impB inh,miR-21 reporter,Rango release inh
CC(C)C12CN3CC(C(C)C)(CN(C1)C3c1ccc3c(c1)OCO3)C2=O (stereo not given),-5,-2.2%,-5%,2%
Cc1noc(C)c1C(=O)OCC(=O)Nc1cc(S(=O)(=O)N2CCOCC2)ccc1Cl,-2,/,-6%,/
N#Cc1nc(-c2ccccc2)oc1NCCCn1ccnc1,3,-1.2%,-33%,9%
CN(C)S(=O)(=O)c1ccc(N2CCCC2)c(C(=O)OCC(=O)NC2CCCCC2)c1,/,0.5%,/,-11%
Cc1ccc(C)c(Nc2c([N+](=O)[O-])cc(C(=O)N3CC(=O)Nc4ccccc43)cc2[N+](=O)[O-])c1,4,-3.3%,16%,2%

# The listing (from the top)
Molecule,GLA inh pH 4.5,Rango-impB inh,miR-21 reporter,Rango release inh
CC(C)C12CN3CC(C(C)C)(CN(C1)C3c1ccc3c(c1)OCO3)C2=O (stereo not given),-5,-2.2%,-5%,2%
Cc1noc(C)c1C(=O)OCC(=O)Nc1cc(S(=O)(=O)N2CCOCC2)ccc1Cl,-2,/,-6%,/
N#Cc1nc(-c2ccccc2)oc1NCCCn1ccnc1,3,-1.2%,-33%,9%
CN(C)S(=O)(=O)c1ccc(N2CCCC2)c(C(=O)OCC(=O)NC2CCCCC2)c1,/,0.5%,/,-11%
Cc1ccc(C)c(Nc2c([N+](=O)[O-])cc(C(=O)N3CC(=O)Nc4ccccc43)cc2[N+](=O)[O-])c1,4,-3.3%,16%,2%
CC(=O)Nc1ccc2c(c1)C(=O)N(c1cccc(C)c1)C2=O,-1,-0.2%,2%,2%
COc1ccc(-c2c[n+](CC(=O)c3ccccc3)c3n2CCCCC3)cc1,-3,-0.9%,24%,-1%
C[C@H](CO)N1C[C@H](C)[C@@H](CN(C)C(=O)Nc2ccc3c(c2)OCO3)Oc2c(NC(=O)Nc3ccc(C(F)(F)F)cc3)cccc2C1=O,/,-0.8%,/,-12%
N#Cc1ccc(OCC(=O)OCC(=O)NC2CC2)cc1,/,-2.4%,/,-3%
COc1ccc(-c2oc3ccccc3c2C(=O)Oc2ccccc2)cc1,/,0.7%,-14%,5%
CCC(C)[C@H](NC(=O)Nc1cccc(OC)c1)C(=O)OC (stereo not given in full),2,1.1%,-6%,-24%
COc1ccc(NC(=O)C2CCOC(C)(C)C2)cc1 (stereo not given),0,-3.1%,5%,11%
CN(C(=O)c1cccc(NC(=O)Cc2ccc(NC(=O)C3CCCN(S(=O)(=O)c4cccc([N+](=O)[O-])c4)C3)cc2)c1)C1CCC1 (stereo not given),/,4.5%,/,12%
Cc1ccc(/C=C/C(=O)c2c(C)nc3ccccn23)cc1,4,-0.2%,18%,10%
CCOc1ccc(S(=O)(=O)Nc2ccccc2C(=O)N2CCCC2)cc1,13,-0.3%,-6%,1%
CN(C)S(=O)(=O)c1ccc(C(=O)Nc2cc(=O)n(C)c(=O)n2C)cc1,2,-4.3%,-3%,12%
CCOC(=O)c1ccccc1NC(=O)Cn1cnc2c(cnn2-c2ccc(OC)cc2)c1=O,/,3.8%,/,24%
CC(=O)c1cnc(-c2ccccc2Cl)s1,7,-1.3%,-43%,-16%
Cc1cc(C)c(-c2cc(NC(=O)COC(=O)c3ccc(CO)cc3)n(-c3ccccc3)n2)cc1C,3,-1.8%,-8%,-6%
Cn1c(=O)c2c(ncn2CC(O)CNc2ccc(Br)cc2)n(C)c1=O (stereo not given),-2,3.3%,4%,-7%

# Entries of single compounds as entered above:
# Cc1ccc(C)c(Nc2c([N+](=O)[O-])cc(C(=O)N3CC(=O)Nc4ccccc43)cc2[N+](=O)[O-])c1 is entered as GLA inh pH 4.5: 4; Rango-impB inh: -3.3%; miR-21 reporter: 16%; Rango release inh: 2%
# CN(C)S(=O)(=O)c1ccc(N2CCCC2)c(C(=O)OCC(=O)NC2CCCCC2)c1 is entered as GLA inh pH 4.5: /; Rango-impB inh: 0.5%; miR-21 reporter: /; Rango release inh: -11%

# (next part)
Molecule,GLA inh pH 4.5,Rango-impB inh,miR-21 reporter,Rango release inh
O=c1/c(=C/c2ccco2)sc2nc(-c3ccccc3Br)nn12,-6,-1.0%,-5%,-18%
CCC1(CC)Cc2ccccc2-c2nc(CCl)[nH]c(=O)c21,/,-0.5%,5%,-16%
CCn1cc(C(=O)N2CCN(C(=O)c3ccco3)CC2)c2cc(OC)c(OC)cc2c1=O,4,6.4%,-8%,0%
CCOC(=O)Cc1c(C)nc2c(-c3cccc(Br)c3)cnn2c1C,10,-2.9%,-11%,-1%
Cc1cccc(C)c1-n1c(C)nn(Cc2ccc([N+](=O)[O-])cc2)c1=O,3,1.1%,0%,-9%
S=c1nc(-c2ccc(Br)cc2)[nH]c2ccccc12,3,0.9%,-9%,-18%
CCCS(=O)(=O)N1CCCC(C(=O)c2cccc(Cl)c2)C1 (stereo not given),2,-1.7%,-5%,0%
COc1ccc(Cl)cc1NC(=O)CN(C)C(=O)Cn1c(=O)oc2ccccc21,/,?,/,-2%
c1cncc(CSc2nnc3ccc(-c4cccs4)nn23)c1,16,-2.1%,1%,0%
Cc1ccc(N2CC(C(=O)OCC(=O)c3ccc([N+](=O)[O-])cc3)CC2=O)cc1 (stereo not given),/,1.8%,-1%,-5%
C=CCc1ccccc1OCC(O)CN(C(C)C)C(C)C (stereo not given),-10,5.6%,-2%,5%
CC1(C)Cc2c(C#N)c(NCCN3CCOCC3)nc(-c3ccco3)c2CO1,4,0.2%,1%,16%
COc1ccccc1NC(=O)N1CCc2c([nH]c3ccccc23)C1C(F)(F)F (stereo not given),-14,4.8%,-3%,-12%
Cc1cc(C)cc(NC(=S)/C(=C(\[O-])c2ccc(Cl)cc2Cl)[n+]2ccccc2)c1,0,0.0%,3%,3%
O=C(Nc1ccc(CN2CCOCC2)cc1)c1ccc(Br)cc1,/,-3.8%,-15%,3%
O=C(NCc1ccco1)c1cc(S(=O)(=O)N2CCCC2)ccc1Cl,/,3.1%,-6%,16%
CS(=O)(=O)N1CCN(CC2CC3C=CC2C3)CC1 (stereo not given),-4,-5.4%,-7%,4%
CCOC(=O)c1cc(C(=O)OCC)c(=O)[nH]c1N1CCCCC1,0,7.6%,-2%,7%
Cc1ccc(NC(=O)Cn2nnc(C(=O)NCCc3ccccc3)c2N)cc1Cl,/,2.5%,0%&-23%,21%
O=C(NCc1ccccc1)C1Nc2ccc(OC(F)(F)F)cc2C2C=CCC12 (stereo not given),/,-2.3%,/,-9%

Molecule,GLA inh pH 4.5,Rango-impB inh,miR-21 reporter,Rango release inh
Cc1cc(C)n2cc(CSC3=NCCS3)nc2n1,-9,11%,-3%,-1%
CCC(=O)N1CCN(C(=O)CC)C1c1ccccc1,-11,-1.4%,3%,-1%
Cc1ccc(Nc2nc(N)nc(CN3CCN(c4ccccc4F)CC3)n2)cc1,-2,0.1%,7%,2%
O=C(COc1ccccc1)Nc1ccc(S(=O)(=O)NCc2ccco2)cc1,-3,3.4%,0%,1%
CCn1c(SCC(=O)Nc2cc(NC(C)=O)ccc2OC)nnc1-c1ccccn1,4,0.9%,-5%,15%
O=C(CSc1nc2ccccc2n1-c1ccccc1)Nc1ncc(Cl)cc1Cl,-11,?,?,-8%
C=CCOc1c(CNc2ccc(S(N)(=O)=O)cc2)cccc1OC,0,-6.5%,1%,-4%
COc1ccc(CNC(=O)CN(C(=O)c2csnn2)c2cccc(F)c2)cc1,/,-0.5%,0%,0%
O=C(CN1CCOCC1)Nc1c2c(nc3c1CCC3)CCC2,7,-4.4%,-15%,-9%
O=C(NCc1ccccc1)c1ncn[nH]1,1,-6.1%,2%,-7%
O=C(NCC(c1cccnc1)N1CCN(c2ccc(F)cc2)CC1)c1ccc(F)cc1 (stereo not given),9,0.9%,8%,-5%
COC(=O)c1cc(-c2c(C)oc3cc(O)ccc3c2=O)c(C)o1,5,-1.4%,-7%,?
O=C(c1ccco1)N1CCN(c2ccc([N+](=O)[O-])cn2)CC1,/,-1.5%,/,-9%
CC1CC(=O)Nc2ccccc2N1S(=O)(=O)c1cccc(F)c1 (stereo not given),6,-2.1%,-1%,24%
Cc1ccc(C(=O)N/C(=C/c2cccs2)C(=O)N2CCCCCC2)cc1,3,0.5%,1%,-7%
Cc1ccc(C)c(Cn2c3ccccc3c3cnn(CC(=O)NCCN4CCOCC4)c(=O)c32)c1,/,-1.1%,3%,0%
CCOC(=O)CSc1nnc(CNC(=O)c2cc(OC)c(OC)c(OC)c2)n1C,-2,-3.1%,-2%,2%
O=S(=O)(Cc1ccccc1)N1CCCC1,0,-2.8%,-1%,6%
Cc1onc(-c2ccccc2Cl)c1C(=O)N1CCN(S(=O)(=O)c2ccc(F)c(F)c2)CC1,/,0.8%,-4%,29%
Cc1cc(C)n(CCNC(=O)CC2C(=O)NCCN2CC2CCCCC2)n1 (stereo not given),3,?,0%,2%

Molecule,GLA inh pH 4.5,Rango-impB inh,miR-21 reporter,Rango release inh
COC1CCCCC1Nc1cc(C)cc(C)c1 (stereo not given),-1,-0.8%,0%,-27%
O=C(CSC1=NS(=O)(=O)c2ccccc2N1)Nc1ccccc1F,/,0.8%,/,-10%
Cc1cc(C)c2cc(CN(CCO)C(=O)Nc3ccc(Cl)cc3)c(=O)[nH]c2c1,-3,7.6%,-8%,-2%
Cc1ccc(Cn2ncc3c(N4CCN(C)CC4)ncnc32)cc1,-3,3.6%,5%,-5%
OC(c1ccc(Cl)cc1)c1nccc2ccccc12 (stereo not given),/,-0.2%,-23%,-3%
CC(C)c1nnc(NC(=O)CSc2nc3ccccc3[nH]2)s1,-9,-0.1%,-17%,-9%
CC(NS(=O)(=O)c1ccc(Cl)cc1)C(=O)OCC(=O)c1ccc[nH]1 (stereo not given),/,1.2%,/,-12%
CC(OC(=O)c1cc(=O)[nH]c2ccccc12)C(=O)c1ccccc1 (stereo not given),2,-0.5%,0%,-11%
CCOC(=O)C1(Cc2ccc(OC)cc2)CCN(C(=O)c2ccoc2C)CC1,-4,-0.3%,-5%,12%
COc1cc(Cl)c(C)cc1NC(=O)CSC,2,0.5%,-3%,3%
C#CCOCCOCCOCCNc1nc(N2CCOCC2)nc(N2CCN(C(=O)[C@H](CCC(=O)O)n3cc(C(N)[C@H](C)CC)nn3)CC2)n1 (stereo not given in full),8,0.0%,0%,8%
COc1cc(SC)ccc1C(=O)Nc1ccc(Cl)cn1,-1,-0.6%,-6%,-11%
COC(=O)CCCC1=CC2=C(c3ccccc3)C(=O)C(C)(OC(=O)C3CCCC3)C(=O)C2=CN1CCc1c[nH]c2ccccc12 (stereo not given),3&-7,?,7%,?
O=C(CC1CCCCC1)NCCS(=O)(=O)N1CCN(c2ccccc2)CC1,/,2.1%,/,-16%
CCOC(=O)N1CCN(CCC(=O)Nc2ccc(F)c(F)c2)CC1,/,2.0%,1%,3%
CC(=O)N1CC(=O)N(CC(=O)Nc2ccc(Br)cc2)C1=S,/,0.8%,-1%,-9%
O=C1COc2ccc(C(=O)/C=C/c3ccccc3)cc2N1,-5,4.5%,-8%,-7%
CCC(=NCc1ccc(Cl)c(Cl)c1)c1nc(-c2ccco2)oc1O,-5,4.0%,6%,0%
COc1ccccc1OCc1ccc(C(=O)Nc2ccncc2)o1,-2,-5.0%,26%,-17%
COc1ccc(CN(C)C(C)C(=O)NC2CCCc3ccccc32)cc1 (stereo not given),-20,-0.5%,16%,-18%

Molecule,GLA inh pH 4.5,Rango-impB inh,miR-21 reporter,Rango release inh
Cc1nc2ccccc2n1CC(=O)OCC(=O)NCc1ccccc1,9,0.1%,-1%,-4%
CCCS(=O)(=O)c1c(S(=O)(=O)CCC)c2c(C)cccn2c1C(=O)OC,-3,0.1%,-1%,23%
Cc1c(NC(=O)c2ccc(S(=O)(=O)N3CCOCC3)cc2)cccc1[N+](=O)[O-],/,1.8%,/,18%
N#C/C(=C1/CCCCCN1)c1nnc2n1CCCCC2,-5,0.6%,-5%,-1%

# High-throughput results from PubChem.
